N370S GC mod – qHTS Assay for Inhibitors and Activators of N370S glucocerebrosidase as a Potential Chaperone Treatment of Gaucher Disease; Potency, µM (top dose mostly 59.4 µM), for the others: at the highest dose activity change, negative = inhibition, most hits filed as inhibitors; Lysosomal acid glucosylceramidase (Homo sapiens), P04062; 330,000 tested, 0.092% active; AID 2101, 2009; N370S GC spleen homogenate, 4MU-glucoside fluorescence;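 note: 0% = full enzyme activity and -100% = no enzyme basal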
FEN1 inh – qHTS Assay for the Inhibitors of Human Flap endonuclease 1 (FEN1) | P39748 | 390,000 tested, 0.35% active | Potency, µM (top dose mostly 114 µM), for the others: top-dose activity change, negative = inhibition, actives largely listed as inhibitors | Recombinant FEN1 flap cleavage, fluorescence, 15 min; note: nearly all actives have a fitted effect of over 65% in size
Target sequence (P39748 whole entry, looked up): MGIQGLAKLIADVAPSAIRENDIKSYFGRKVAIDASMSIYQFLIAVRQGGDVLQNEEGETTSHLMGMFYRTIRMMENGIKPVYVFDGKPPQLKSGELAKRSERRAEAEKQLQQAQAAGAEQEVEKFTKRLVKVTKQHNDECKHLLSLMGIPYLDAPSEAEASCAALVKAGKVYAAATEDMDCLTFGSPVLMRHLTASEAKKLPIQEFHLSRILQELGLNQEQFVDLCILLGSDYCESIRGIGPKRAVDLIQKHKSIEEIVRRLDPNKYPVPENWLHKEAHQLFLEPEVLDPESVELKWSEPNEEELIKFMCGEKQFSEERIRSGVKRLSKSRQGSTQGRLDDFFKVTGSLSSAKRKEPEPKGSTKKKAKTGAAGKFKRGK
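With each library titrated from low to high concentration, compounds met 10 nM FEN1 for 15 min at room temperature before 50 nM substrate was added; readings at 0 and 15 min fed four-parameter Hill curve fits.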
An asterisk follows results filed as active; ? = inconclusive; / = no result given; & = joins results of further samples. Calls come from the whole dose curve; as a rule, active = well fitted curve in the direction sought with a large enough effect; inconclusive = small, poorly fitted or top-dose-only effect, or another doubt; inactive = no such curve, though single readings can be large; an effect the other way counts as inactive or inconclusive. Unless noted, % is set by controls: 0 for no effect and ±100 for the full control effect; potency is the fitted concentration of half-maximal effect.

SMILES	N370S GC mod	FEN1 inh
COc1ccccc1OCCn1c(C)c(C=O)c2ccccc21	?	3.5%
Nc1nc(SCc2ccc(Cl)cc2Cl)nc2nc3c(cc12)CCCC3	11.9%	3.7%
CC(=O)c1cc(-c2ccc(F)cc2)n(CCC(=O)Nc2cccc(C)n2)c1C	0.0%	-0.8%
COC(=O)C1CCN(C2CC(=O)N(c3cc(C)cc(C)c3)C2=O)CC1 (stereo not given)	0.3%	-18.2%
CCCCC1=NN(C(=O)c2ccncc2)C(O)(C(F)(F)F)C1 (stereo not given)	-20.2%	1.6%
COc1ccccc1NC(=O)CSc1nnc(-c2ccccc2C)o1	/	20.8%
CC(C)(C)OC(=O)N1Cc2ccccc2C[C@H]1C(=O)NCC(=O)NC1CCCC1	-0.9%	-9.1%
COc1ccc(/C=C/C(=O)N2CCN(c3ccccc3)CC2)cc1S(=O)(=O)N1CCOCC1	4.0%	3.8%
CCOC(=O)C1CCC(CNCc2ccccc2C)CC1 (stereo not given)	-7.3%	-7.0%
O=C(CCCN1C(=O)c2cccc3cccc(c23)C1=O)NCc1cccs1	4.2%	-5.4%
C=CCn1cnc2scc(-c3ccc(C)cc3)c2c1=O	1.2%	-9.5%
COc1ccc(/C=N/Nc2nnc(-c3ncc[nH]3)c3ccccc23)cc1	-1.1%	1.8%
COc1ccc(/C=C(\C#N)C(=O)OC2CCOC2=O)cc1 (stereo not given)	-4.8%	2.4%
COc1ccc(NC(=O)CN2C(=O)NC3(CCCCC3C)C2=O)cc1S(=O)(=O)N1CCOCC1 (stereo not given)	/	-9.8%
O=C(N/N=C/c1ccco1)C1CC1(c1ccccc1)c1ccccc1 (stereo not given)	17.3%	-14.8%
O=C(Cc1ccc(Cl)cc1)Nc1cccc2ncccc12	2.4%	-1.9%
CNC(=S)NNC(=O)c1cc(-c2cccnc2)nc2ccccc12	-0.2%	17.3%
Cc1cccc(OCc2nnc(SCc3nc4cc(C(F)(F)F)ccc4c(=O)[nH]3)o2)c1	4.7%	-11.0%
O=C(Cn1c(=O)n(Cc2cccs2)c(=O)c2cccnc21)Nc1ccc(F)cc1	/	10.2%
Cc1ccccc1NC(=S)N(CCCN1CCOCC1)Cc1cccs1	-6.4%	-9.1%
CC1CCN(S(=O)(=O)c2cccc(C(=O)NC3CCS(=O)(=O)C3)c2)CC1 (stereo not given)	/	5.4%
CCOC(=O)c1ccc(NC(=O)c2nc[nH]c2C(=O)N[C@@H](Cc2ccccc2)C(=O)OC(C)(C)C)cc1	21.4%	0.3%
COc1cccc(NC(=O)CC2C(=O)NCCN2C(=S)Nc2ccc(F)cc2)c1 (stereo not given)	-7.2%	-0.9%
Cc1cc2cc(C#N)c(NCCNC(=S)NCCCN3CCOCC3)nc2cc1C	-24.7%	11.3%
COc1ccc(C(=O)NC(Oc2ccccc2)C(Cl)(Cl)Cl)cc1 (stereo not given)	0.7%	-0.7%
SMILES	N370S GC mod	FEN1 inh
O=C(COc1ccc(Br)cc1)Nc1ccc2c(c1)C(=O)NC2=O	4.6%	4.8%
Cc1ccc(C)c(NC(=O)CN(C)C(=O)COc2ccc3ccccc3c2)c1	/	11.3%
COc1ccc(CN/C=C2\CCCCC2=O)cc1	-3.6%	-8.0%
O=C(NCc1ccco1)C1CCCN(S(=O)(=O)c2ccc(Br)cc2)C1 (stereo not given)	-21.2%	-1.4%
CCOC(=O)Cn1ncc2c(=O)oc3ccccc3c21	1.7%	-4.9%
Cc1ccc(-c2cc(C(F)F)nc(NCc3cccs3)n2)cc1	2.8%	2.1%
CC(Sc1nnnn1C)C(=O)Nc1cc(S(=O)(=O)N2CCCCC2)ccc1Cl (stereo not given)	/	-5.3%
O=C(OCn1nnc2ccccc2c1=O)c1ccco1	-3.2%	-13.5%
Cc1ccc(SCn2nnc3ccccc3c2=O)c(C)c1	13.6%	-0.4%
Cc1ccc(C(=O)NCc2ccco2)cc1Br	6.4%	3.7%
Cc1ccc(NC(=O)c2ccc(-n3cccn3)nc2)cc1	-2.9%	0.5%
COc1ccccc1C(=O)COC(=O)c1cccs1	/	-2.4%
Fc1ccc(CNC(=S)Nc2cccc(Cl)c2)cc1	-5.7%	-20.8%
CN(C(=O)CSc1nnc(NC(=O)Nc2ccccc2)s1)c1ccccc1	/	15.8%
C(=N\NC1=Nc2cccc3cccc1c23)/c1cccnc1	-14.2%	?
COc1ccc(OC)c(N)c1	-5.5%	2.8%
CCOC(=O)c1[nH]c2ccc(F)cc2c1NC(=O)CCN1CCSCC1	-5.7%	2.9%
CC(C)Cn1c(N)c(C(=O)COC(=O)c2ccc(Cl)cc2)c(=O)n(C)c1=O	11.2%	14.5%
COC(=O)c1cc(C(=O)OC)cc(-n2c(C)cc(C=O)c2C)c1	3.3%	1.5%
Cc1ccc(NC(=S)N(CCN2CCCCC2)Cc2ccco2)cc1C	-6.3%	6.4%
c1ccc(-c2ccc(-c3cn4c(n3)CCC4)cc2)cc1	-14.3%	4.5%
Cn1ccnc1Sc1nnnn1-c1ccccc1	1.8%	4.8%
COc1cc(CN2CCN(Cc3ccc([N+](=O)[O-])cc3)CC2)c([N+](=O)[O-])cc1OC	5.4%	-4.0%
C#CCOCCOCCOCCNc1nc(N2CCN(C(=O)[C@H](CC(N)=O)n3cc(C(N)[C@@H](C)CC)nn3)CC2)nc(N2CCN(C(=O)[C@H](CCCCN)n3cc([C@@H](N)CC(N)=O)nn3)CC2)n1 (stereo not given in full)	/	-4.2%
CC(C)CN1CCC(=O)N(C(CSc2ccc(Br)cc2)c2ccccc2)CC1 (stereo not given)	-7.0%	-3.0%
SMILES	N370S GC mod	FEN1 inh
COc1cccc(C(c2sc3nc(C)nn3c2O)N2CCN(c3ccccc3F)CC2)c1 (stereo not given)	-9.5%	14.5%
COC(=O)c1ccccc1S(=O)(=O)N1Cc2cc([N+](=O)[O-])ccc2Oc2ccccc21	-1.0%	1.7%
COc1ccc(C2/C(=C(/O)c3ccc4c(c3)CC(C)O4)C(=O)C(=O)N2Cc2cccnc2)cc1 (stereo not given)	-0.8%	1.3%
CCCc1cc(=O)[nH]c(SCC(=O)N2CCc3ccccc32)n1	/	-6.3%
CCOC(=O)c1c(-c2ccccc2)oc2ccc(O)c(CN(C)C)c12	-6.5%	-3.9%
O=C(CN1C(=O)NC2(CCCCC2)C1=O)Oc1ccc2c(C(F)(F)F)cc(=O)oc2c1	1.2%	13.6%
Cc1cccc(NC(=S)N/N=C2/CCCCc3ccccc32)c1	11.7%	-15.5%
COc1ccc(N(CC(=O)N/N=C/c2cccs2)S(=O)(=O)c2ccc(OC)c(OC)c2)cc1	6.2%	4.4%
Cc1cccc(-n2nc3c([n+]2[O-])CCc2nonc2-3)c1C	1.2%	-8.2%
O=C(Cn1c(=O)sc2ccccc21)NCc1ccco1	10.9%	1.2%
COc1ccc(OC)c(C2C3=C(N=C4SCC(=O)N42)c2ccccc2CC3)c1 (stereo not given)	-2.4%	2.2%
Cn1cc(CN2CCN(c3ncccn3)CC2)c(-c2cccc(Cl)c2)n1	-4.6%	-0.8%
Cc1cc(C)cc(OCc2nc(-c3cccnc3)no2)c1	1.0%	8.8%
CCC(Sc1ccc2nnc(CCNS(=O)(=O)c3ccc(OC)cc3)n2n1)C(=O)OC (stereo not given)	-0.8%	21.2%&21.4%
COc1ccc(Cl)cc1Nc1nc(-c2cccnc2)cs1	1.5%	2.9%
CNC(=O)C1CC(=O)N/C(=N/N=C(\C)c2cccs2)S1 (stereo not given)	16.8%	-10.6%
CC1CCCC(C)N1C(=O)COC(=O)c1cc(Br)ccc1Cl (stereo not given)	-11.9%	1.2%
Cc1cccc(N2CCN(C(C)C(=O)N3CCc4ccccc43)CC2)c1C (stereo not given)	-11.5%	?
O=C1/C(=C\c2ccc(O)c(O)c2)Oc2c1ccc(O[C@@H]1O[C@H](CO)[C@@H](O)[C@H](O)[C@H]1O)c2O	-23.3%	?
Cc1ccc(NC(=S)/C(=C(\[O-])c2ccc(Cl)s2)[n+]2cccc(CO)c2)cc1C	6.8%	-2.2%
CC1(C)C(=O)OC(C(=O)c2ccccc2)C(C)(C)C1=O (stereo not given)	1.5%	-2.5%
O=S(=O)(c1ccccc1F)N1CCN(Cc2cc3c(cc2Br)OCCO3)CC1	/	4.9%
COc1ccc(N2CCN(c3nc4ccc(C)cn4c(=O)c3C=O)CC2)cc1	29.0%	-14.9%
CCNc1nc(NCC)nc(OCCNS(=O)(=O)c2cc(C)ccc2C)n1	21.9%	-1.0%
COC(=O)NCCOC(=O)N(O)c1ccc(Br)cc1	8.0%	9.0%
SMILES	N370S GC mod	FEN1 inh
COc1cc(C(=O)Nc2ccc3c(c2)OCCO3)ccc1OC(C)C	-20.9%	-12.6%
CC(=O)Nc1nc(C(=O)Nc2c(C)n[nH]c2C)cs1	4.3%	-2.2%
CC(C)[C@@H](CC(=O)N[C@@H]1CCCC[C@H]1C(=O)N[C@H](CC(=O)N[C@@H](CCC(=O)O)CC(=O)O)Cc1c[nH]c2ccccc12)NC(=O)C[C@H](Cc1c[nH]c2ccccc12)NC(=O)[C@@H]1CCCC[C@H]1N	-25.1%	/
Cc1ccc(C)c2[nH]c(=O)c(CCNC(=O)c3ccc(S(=O)(=O)N(C)C)cc3)cc12	3.4%	-8.7%
CN1CCN(c2nc(-c3ccc(Cl)cc3)cc(=O)[nH]2)CC1	-2.8%	3.5%
O=C(CCc1c[nH]c2ccccc12)NCc1ccc2c(c1)OCO2	9.4%	-2.7%
CC1CC(C)CN(C(=O)c2cccc(S(=O)(=O)N3c4ccccc4CC3C)c2)C1 (stereo not given)	0.4%	-10.0%
CC(C)NC(=O)C1CCN(C2CCN(Cc3ccc4cccc(F)c4n3)CC2)CC1	-2.8%	0.9%
COc1ccccc1-c1noc(CSc2nc(N)cc(=O)[nH]2)n1	6.0%	-6.1%
CC(C)CNC(=O)c1ccc2c(c1)C(=O)N(C1CCCCC1)C2=O	1.7%	1.4%
CCCCc1ccc(NC(=O)c2ccc3c(c2)CCN3S(=O)(=O)c2ccccc2)cc1	/	-34.8%
O=C(COC(=O)c1cc(=O)[nH]c2ccccc12)NCCc1ccccc1	/	-0.8%
CC1CCN(S(=O)(=O)c2ccc3c(ccn3CC(=O)O)c2)CC1	0.8%	-1.7%
CC1CCN(S(=O)(=O)c2ccc(C(=O)NNC(=O)C3CC3)cc2)CC1	12.0%	0.9%
CC(=O)N1c2ccc(S(=O)(=O)N3CCC(C(=O)NCc4ccc(N(C)C)cc4)CC3)cc2CC1C (stereo not given)	-6.5%	3.4%
O=C(N/N=C1\CCCc2ccccc21)c1cccc(Br)c1	-8.6%	-10.0%
CCCCNc1c([N+](=O)[O-])cc(C(=O)O)cc1[N+](=O)[O-]	0.7%	-4.3%
CCc1ccc(NC(=O)c2oc3c(c2C)-c2[nH]ncc2CC3)cc1	/	5.3%
COc1cc(/C=N/N2CCN(c3ccccc3)CC2)ccc1OC(C)=O	-5.4%	-0.3%
COc1ccc(NC(=O)CN(Cc2ccccc2)S(C)(=O)=O)cc1OC	-20.0%	2.2%
CCOC(=O)c1sc2nc(C(C)C)c3c(c2c1N)CCC3	?	-2.5%
COc1cc(-c2c(C#N)c(N)nc(SCc3ccncc3)c2C#N)cc(OC)c1OC	18.2%	-11.8%
CCOC(=O)CSc1nnc(Cc2ccccc2)n1-c1ccc(C)cc1	1.1%	2.2%
CCO[C@@H]1OC(C(=O)NCc2ccccc2)=C[C@H](c2ccc(C(F)(F)F)cc2)[C@H]1CCCO	-4.3%	-7.9%
CCOC(=O)c1ccc(NS(=O)(=O)c2ccc3[nH]c(=O)[nH]c3c2)cc1	-12.4%	-6.6%
CCc1ccc(NC(=O)/C(C#N)=C/c2cc3ccc(C)cc3nc2N2CCOCC2)cc1	-12.8%	-0.4%
C=CCOc1c(Br)cc(CNc2nccs2)cc1OC	1.8%	-6.2%

Given as a markdown table: part of the list above.
| canonical_smiles | N370S GC mod | FEN1 inh |
| --- | --- | --- |
| COc1cc(C(=O)Nc2ccc3c(c2)OCCO3)ccc1OC(C)C | -20.9% | -12.6% |
| CC(=O)Nc1nc(C(=O)Nc2c(C)n[nH]c2C)cs1 | 4.3% | -2.2% |
| CC(C)[C@@H](CC(=O)N[C@@H]1CCCC[C@H]1C(=O)N[C@H](CC(=O)N[C@@H](CCC(=O)O)CC(=O)O)Cc1c[nH]c2ccccc12)NC(=O)C[C@H](Cc1c[nH]c2ccccc12)NC(=O)[C@@H]1CCCC[C@H]1N | -25.1% | / |
| Cc1ccc(C)c2[nH]c(=O)c(CCNC(=O)c3ccc(S(=O)(=O)N(C)C)cc3)cc12 | 3.4% | -8.7% |
| CN1CCN(c2nc(-c3ccc(Cl)cc3)cc(=O)[nH]2)CC1 | -2.8% | 3.5% |
| O=C(CCc1c[nH]c2ccccc12)NCc1ccc2c(c1)OCO2 | 9.4% | -2.7% |
| CC1CC(C)CN(C(=O)c2cccc(S(=O)(=O)N3c4ccccc4CC3C)c2)C1 (stereo not given) | 0.4% | -10.0% |
| CC(C)NC(=O)C1CCN(C2CCN(Cc3ccc4cccc(F)c4n3)CC2)CC1 | -2.8% | 0.9% |
| COc1ccccc1-c1noc(CSc2nc(N)cc(=O)[nH]2)n1 | 6.0% | -6.1% |
| CC(C)CNC(=O)c1ccc2c(c1)C(=O)N(C1CCCCC1)C2=O | 1.7% | 1.4% |
| CCCCc1ccc(NC(=O)c2ccc3c(c2)CCN3S(=O)(=O)c2ccccc2)cc1 | / | -34.8% |
| O=C(COC(=O)c1cc(=O)[nH]c2ccccc12)NCCc1ccccc1 | / | -0.8% |
| CC1CCN(S(=O)(=O)c2ccc3c(ccn3CC(=O)O)c2)CC1 | 0.8% | -1.7% |
| CC1CCN(S(=O)(=O)c2ccc(C(=O)NNC(=O)C3CC3)cc2)CC1 | 12.0% | 0.9% |

Screening results as filed in PubChem BioAssay.

The list is partial, and most or all hits are left out here.
